From PubChem
HPGD inh – blocks human HPGD enzyme activity | Potency, µM, inactives show top-dose activity change, negative = inhibition, hits mostly inhibitors | actives 4.3% (n = 150,000) | AID 894 | purified HPGD, NADH fluorescence kinetic, PGE2 substrate; active = well fitted inhibition curve with a large enough effect (not every such curve was filed as active); inconclusive = small, poorly fitted or top-dose-only effect, or another doubt; inactive = no such curve, though single readings can be large or run the other way;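 note: top concentration of the series not given in the record; plate controls included wells without enzyme; inactives centre near -10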
Target sequence (P15428 whole entry, looked up): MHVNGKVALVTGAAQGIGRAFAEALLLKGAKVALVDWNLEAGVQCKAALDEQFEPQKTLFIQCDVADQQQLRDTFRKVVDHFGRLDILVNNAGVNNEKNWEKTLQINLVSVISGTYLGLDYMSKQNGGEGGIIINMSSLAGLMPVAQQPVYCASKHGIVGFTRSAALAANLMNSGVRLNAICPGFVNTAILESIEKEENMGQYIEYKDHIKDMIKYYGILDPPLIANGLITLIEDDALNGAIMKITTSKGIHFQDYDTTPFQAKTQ
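NADH formation kinetics: reaction with 30 uM PGE2 and 1 mM NAD+ (final), 20 nM enzyme, Tris-HCl pH 8 with Tween 20, after 15 min compound preincubation at room temperature. Fluorescence change, last versus first of five reads.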
* marks the source's active call; other numbers are inactive results; u = inconclusive; & = joins results of further samples. % is set by controls: 0 for no effect and ±100 for the full control effect; potency is the fitted concentration of half-maximal effect.

item	SMILES	HPGD inh
1	O=C(COC(=O)CN1C(=O)C2CCCCC2C1=O)NC1CCS(=O)(=O)C1 (stereo unspecified)	-8.8%
2	CCOC(=O)c1ccc(NC(=S)NN2CCOCC2)cc1	-2.7%
3	COC(=O)C1C(=O)C2=C(CC1C)NC(C)=C(C(=O)OC1CCCC1)C2c1ccc(N(C)C)cc1 (stereo unspecified)	-18.7%
4	COC(=O)Cn1ncc2c3ccccc3n(Cc3ccccc3)c2c1=O	-11.8%
5	CN(C)CCNc1nc(-c2ccccc2)c2c(c1C#N)CC(C)(C)OC2	-8.4%
6	Cc1cccc(OCC(=O)N2CCN(C(=O)CCC3CCCC3)CC2)c1	-17.1%
7	CC(=O)NS(=O)(=O)c1cccnc1Nc1ccc(Cl)c(Cl)c1	-8.5%
8	Cc1ccc(-c2nn(C)c(=O)c3ccccc23)cc1S(=O)(=O)NCCO	-18.0%
9	Cc1noc(C)c1S(=O)(=O)Nc1ccc(C(=O)NCc2ccccc2)cc1	-16.9%
10	CCc1ccc2nc(N3C(=O)c4oc5ccccc5c(=O)c4C3c3ccc(OC)c(OC)c3)sc2c1 (stereo unspecified)	-6.7%
11	COc1ccc(C(=O)NCc2ccc3c(c2)OCO3)cc1S(=O)(=O)N(C)Cc1ccccc1	-5.4%
12	COCCCn1c(SCC(=O)Nc2ccccc2)nnc1-c1ccncc1	-5.1%
13	Cc1ccc(C(=O)NC(=S)Nc2cc(-c3nc4ccccc4s3)ccc2C)cc1	-10.6%
14	NCC1O[C@@H](OC2C(N)C[C@H](N)[C@@H](O[C@H]3OC(CO)C(O)C(N)C3O)C2O)C(O)C(O)C1O (stereo partly specified)	-7.5%
15	Cn1cccc1Cc1nnc(SCC(=O)Nc2ccccc2)n1-c1ccc(F)cc1	-9.8%
16	Cc1ccccc1CNC(=O)c1ccccc1C(=O)O	-7.4%
17	CCC(O)(CC)C(=O)NN(C(=O)Nc1csc2c1CCCC2)c1ccccc1	-5.2%
18	CN(c1ccc(C(=O)NC2CC2)cc1)S(=O)(=O)c1ccccc1	12.6µM*
19	COc1ccc(/C=C2\CCc3ccccc3C2=O)cc1OC	u
20	COc1ccc2nc3c(cc2c1)c(NC(=O)c1cccs1)nn3CC(C)C	u
21	COc1cc(C)ccc1OCCCCOc1ccccc1C(C)=O	-18.0%
22	CCN(CCNC(=O)CCCn1nc(C)n2c(cc3sccc32)c1=O)c1ccccc1	-29.9%
23	CC(C)NC(=O)N1CCC2(CC1)CCN(C(=O)c1cccc(F)c1)CC2	-15.3%
24	Cc1nn(C)c(C)c1/C=N/O	-3.6%
25	CC(/C=N/NC(=O)Cc1cccs1)=C\c1ccco1	-9.1%
26	O=C(NCCCN1CCC(Cc2ccccc2)CC1)C1CC(=O)N(C2CCCCCC2)C1 (stereo unspecified)	0.9%
27	COc1cc(NC(=O)COC(=O)CNC(=O)c2ccc(Cl)cc2)c(C)cc1[N+](=O)[O-]	-16.3%
28	N#CC1=C(N)Nc2ncnn2C1c1ccccc1 (stereo unspecified)	-14.5%
29	Cn1c(CC(=O)Nc2ccc(Cl)c(Cl)c2)nnc1SCC(=O)Nc1nccs1	-2.5%
30	COc1cc(NC(=O)COc2ccc(Cl)cc2)ccc1-c1cc2ccccc2oc1=O	u

The closing 2 entries of the part before lead into the next.
item	SMILES	HPGD inh
29	Cn1c(CC(=O)Nc2ccc(Cl)c(Cl)c2)nnc1SCC(=O)Nc1nccs1	-2.5%
30	COc1cc(NC(=O)COc2ccc(Cl)cc2)ccc1-c1cc2ccccc2oc1=O	u
31	CC1(C)CC(=O)C(C=NC2CC(C)(C)NC(C)(C)C2)=C(O)C1	-14.7%
32	O=C(Cc1cccc2ccccc12)Nc1ccccc1C(=O)O	u
33	Cn1c(=O)c([N+](=O)[O-])c(NCC(O)c2ccccc2)c2ccccc21 (stereo unspecified)	25.1µM*
34	Cc1cc(OC(F)F)ccc1NC(=O)Nc1ccc([N+](=O)[O-])cc1	-4.8%
35	O=C(Cc1ccccc1)Nc1ccc2oc(-c3ccncc3)nc2c1	u
36	CC(=O)c1cccc(NC(=O)NC(C)c2ccncc2)c1 (stereo unspecified)	-6.1%
37	CCOC(=O)CNC(=O)CSc1nc(N(C)C)nc(N2CCOCC2)n1	2.3%
38	c1ccc(-n2ncc3c2ncn2nc(-c4ccco4)nc32)cc1	-17.3%
39	Cc1ccc(C(C(=O)NC2CCCCC2)N2CCCC2)cc1 (stereo unspecified)	-15.1%
40	CCN(CC)S(=O)(=O)c1cc(C(=O)OCC(=O)Nc2ccc(-c3nc4ccc(C)cc4s3)cc2)ccc1F	u
41	O=C(Nc1ccncc1)c1cc(F)cc(F)c1	-7.1%
42	CCC(=O)Nc1sc2c(c1C#N)CCCCC2	-15.8%
43	c1ccc(-c2cn3c(n2)CCC3)cc1	-2.8%
44	COc1cccc(/C=N/NC(N)=S)c1OS(=O)(=O)c1ccccc1	-12.6%
45	Cc1ccc(S(=O)(=O)Nc2cccc(/C=C/C(=O)O)c2)cc1	-6.9%
46	CC(=O)CSc1nnc(-c2ccncc2)n1C	-5.9%
47	CCN(c1ccccc1)S(=O)(=O)c1cc(C(=O)Oc2ccc3c(C)cc(=O)oc3c2)ccc1C	u
48	Brc1ccc(-c2csc(N/N=C/c3ccc4c(c3)OCO4)n2)cc1	u
49	O=C(O)C1CCCCC1C(=O)Nc1ccccc1F (stereo unspecified)	-4.8%
50	O=NN(Cc1ccc(Cl)cc1)[C@@H](C(=O)O)c1ccccc1	-8.7%
51	O=C(O)CCC(=O)N(Cc1ccco1)c1nc(-c2ccccc2)cs1	-10.3%
52	CCCCCCCCOc1ccc(C2OC34CCCCC3C(C#N)(C#N)C2(C#N)C(=N)O4)cc1 (stereo unspecified)	u
53	CC(C)(C)C(=O)Nc1ccc(C(=O)N/N=C/c2ccccc2OC(=O)c2ccccc2)cc1	-8.0%
54	Cc1ccnc(NC(=O)C2CCN(S(=O)(=O)c3cccc4nsnc34)CC2)c1	2.4%
55	Cc1ccc(S(=O)(=O)N2CCN(S(=O)(=O)N3CCOCC3)CC2)cc1	-10.2%
56	Cc1cs/c(=N/C(=S)Nc2ccccc2)n1C	u
57	CCN1C(=O)/C(=C2/C=CC=CN2C)OC1=S	-6.4%
58	Cc1sc2ncn3ncnc3c2c1C	-18.4%
59	COC(=O)[C@@H](NC(=O)N1CCc2nc(-c3ccccc3)c3c(c2C1)CO[C@@H](C)C3)C(C)C	-13.1%
60	Cc1cc(N)c2cc(OCCOc3ccc4nc(C)cc(N)c4c3)ccc2n1	-14.9%

The results go on.
item	SMILES	HPGD inh
61	COc1ccc(OC)c(CN2CCC(C(=O)N3CCOCC3)CC2)c1	-12.0%
62	CCC(C)c1ccc(NC(=S)NCc2cccs2)cc1 (stereo unspecified)	-24.8%
63	COc1cccc(/C=C2\SC(=S)N(N3CCOCC3)C2=O)c1OC	-8.9%
64	O=C(NCc1ccco1)C1CC(=O)N(c2ccc(F)cc2)C1 (stereo unspecified)	-6.2%
65	CCOC(=O)c1cc2c(nc1NC(=S)NCc1ccccc1)CCCC2	-16.9%
66	COc1ccc2[nH]c3c(c2c1)CCn1c-3nc2sc(C(=O)Nc3ccccc3)c(C)c2c1=O	-21.9%
67	Cc1ccc(CC(CC(=O)O)C(=O)NC2CCCCC2)cc1 (stereo unspecified)	-4.7%
68	O=S(=O)(N1CCCCC1)N1CCN(S(=O)(=O)N2CCCCC2)CC1	-1.7%
69	Cn1nnnc1SCC(=O)Nc1ccccn1	-2.9%
70	Cc1cc2oc(=O)cc(-c3ccccc3)c2c(C)c1-c1ccc(N(C)C)cc1	-5.5%
71	Cc1ccc2nsnc2c1NC(=O)c1ccc2c(c1)OCCO2	-10.8%
72	COc1ccc2nc3oc(C(=O)N4CCCCC4)cc3cc2c1	u
73	Cc1ncoc1C(=O)Nc1ccc(Oc2ccccc2)cc1	-18.3%
74	CCN(Cc1ccncc1)C(=O)[C@@H](CO)c1ccccc1	-3.6%&1.0%
75	O=S(=O)(c1ccc(F)c(Cl)c1)N1CCCC1	-6.8%
76	COc1ccc(C(=O)NCCSc2ccccc2)cc1	-13.1%
77	O=C(c1n[nH]c(=O)c2ccccc12)N1CCN(C2c3ccccc3-c3ccccc32)CC1	-3.9%
78	CCCCC(=O)N/N=C(\C)c1cccc(NC(=O)C2CC2)c1	-7.9%
79	COc1ccc(C2C(=O)N(C3CCCCC3)CC(=O)N2C2CCCC2)cc1 (stereo unspecified)	-1.5%
80	N#CCSc1nc2[nH]ncc2c(=O)n1-c1ccccc1Br	u
81	CCOc1ccc2nc(NC(=O)c3ccoc3C)sc2c1	u
82	CCOC(=O)C1CCN(S(=O)(=O)c2ccc(OC)c(OC)c2)CC1	-7.8%
83	O=C(OCC(=O)N1CCN(C(=O)c2ccco2)CC1)c1cn(-c2ccccc2)nc1-c1ccccc1	-6.0%
84	N=c1c(C(=O)NCc2ccc3c(c2)OCO3)cc2c(=O)n3ccccc3nc2n1Cc1cccnc1	u
85	O=C(/C=C/c1ccccc1Cl)c1ccc[nH]1	-28.6%
86	CCc1cccc(CC)c1NC(=S)NCc1ccc2[nH]c(C)cc2c1	-1.3%
87	COc1ccccc1N1CCN(C(=O)/C=C/c2ccccc2)CC1	-10.1%
88	CCN(CC)c1nc2n(c(=O)n1)CCN2CC	0.0%
89	Cc1ccc(C(=O)Nc2ccc(S(=O)(=O)N3CCc4ccccc4C3)cc2)o1	-29.2%
90	Cn1c(CN2CCOCC2)nnc1SCc1ccccc1	2.8%

Next part:
item	SMILES	HPGD inh
91	Cc1ccc(CCNC(=O)C23CN(Cc4ccccc4)CC2C(c2cccc([N+](=O)[O-])c2)=NO3)cc1 (stereo unspecified)	-18.1%
92	CC(C)(C)N/N=C/c1cc(Cl)cc([N+](=O)[O-])c1O	-25.8%
93	Cc1nn(CC(=O)Nc2ccccn2)c(C)c1[N+](=O)[O-]	-18.9%
94	CC1=C(C(=O)OCc2ccccc2)C(c2ccccc2-c2ccccc2)NC(=O)N1CCCCCC(=O)O (stereo unspecified)	-4.3%&-6.1%
95	CCOc1cc(NC(=S)NCCCOC)c(OCC)cc1NC(=O)c1ccco1	-14.4%
96	C/C(=N\NC(=S)NCc1ccccc1)c1ccc2ccccc2c1	-5.0%
97	Nc1c(C(=O)CCC(=O)O)oc2ccc(Cl)cc12	u
98	COC(=O)c1cccc(NC(=O)Cn2cnc3c2c(=O)n(C)c(=O)n3C)c1	-7.5%
99	O=C(CSc1nnc(CNC(=O)C23CC4CC(CC(C4)C2)C3)n1-c1ccccc1)Nc1ccccc1	1.3%
100	COc1ccc(C(N)=O)cc1N	-10.7%
101	COc1ccc2c(c1)C=CC1(O2)N(CCO)c2ccccc2C1(C)C (stereo unspecified)	-16.1%
102	Cc1c(-c2nnc(SCC(=O)O)n2-c2ccccc2Br)nnn1-c1ccccc1	-10.9%
103	CC(=O)NCCC(=O)Nc1nc(-c2cccs2)c(-c2cccs2)s1	u
104	COc1ccccc1-c1cc(C(=O)Nc2c(F)cc(F)cc2Br)no1	-26.4%
105	Cn1c(=O)c2c(nc(SCc3cc4c(cc3Cl)OCO4)n2C)n(C)c1=O	-15.7%
106	CCCn1c(SCC(=O)N2c3ccccc3CCc3ccccc32)nc2c1c(=O)n(C)c(=O)n2C	-12.9%
107	O=C(/C=C/Nc1ccc(F)c(Cl)c1)c1ccco1	-23.8%
108	C=CCOc1ccc(Br)cc1CNCCCN1CCOCC1	1.5%
109	COc1ccccc1OCc1nnc(SCC(=O)c2cc(Cl)ccc2OC)o1	u
110	Nc1ccc(-c2nc3ccc(-c4nc5ccccc5o4)cc3[nH]2)cc1	u
111	Cn1c(=O)c2[nH]c(N3CCOCC3)nc2n(-c2ccccc2)c1=O	0.1%
112	CCC(=O)Nc1ccc(Nc2ccccc2)cc1	-21.8%
113	CCCCc1ccc(CC2S/C(=C(\C#N)C(=O)N3CCOCC3)N(c3ccccc3)C2=O)cc1 (stereo unspecified)	-0.3%
114	CCCS(=O)(=O)c1cn2cccc(N)c2c1S(=O)(=O)CCC	-3.7%
115	O=C(NCCc1c[nH]c2ccc(Cl)cc12)c1cccnc1	15.8µM*
116	Cc1cccc(Sc2ccc([N+](=O)[O-])cc2[N+](=O)[O-])n1	-6.6%
117	Cc1nccn1CCc1nc(N)nc(N)n1	-8.8%
118	CCOC(=O)C1CCCN(CC(O)COc2cccc(C)c2)C1 (stereo unspecified)	25.1µM*
119	CCN(CC)S(=O)(=O)c1ccc2c(c1)nc(CCC(=O)OCC(=O)Nc1cc(Cl)cc(Cl)c1)n2C	-13.4%
120	CCOc1ccc(-c2cc(C)n3nc(C(N)=O)cc3n2)cc1	u

Next part:
item	SMILES	HPGD inh
121	O=C1CC[C@](CCc2nc3ccccc3[nH]2)(c2ccccc2)C(=O)N1	-2.7%
122	Cc1ccc2c(c1)c1c(n2CC(O)CNC(CO)(CO)CO)CCCC1 (stereo unspecified)	-13.8%
123	CCOC(=O)c1c(=O)n(O)c2ccc(OC)cc2[n+]1[O-]	-16.6%
124	CC(=O)NC12CC3CC(C)(C1)CC(NC(C)=O)(C3)C2	-19.5%
125	COc1ccc(NCc2cc3cc(OC)ccc3[nH]c2=O)cc1	-17.3%
126	Cc1ccn2cc(CSc3ccccc3N)nc2c1	-6.4%
127	Cc1ccc(S(=O)(=O)Nc2ccc(C(=O)Nc3ccncc3)cc2)cc1	u
128	COc1ccc(C(=O)N2CCN(c3ccc([N+](=O)[O-])c(-n4nc(C)cc4C)c3)CC2)cc1	-8.0%
129	COc1ccc(C(=O)n2nc(-c3ccccc3)nc2SC)cc1	u
130	O=C(CN1CCOCC1)Nc1ccc(Oc2ccc(NC(=O)CN3CCOCC3)cc2)cc1	u
131	CC(=O)N1CCC2(CCCN(C(=O)Nc3cccc(C#N)c3)C2)CC1	-4.0%
132	Cc1cc(CNC(=O)[C@H](C)[C@@H]2C[C@@]2(C)[C@@H](NC(=O)OCc2ccccc2)c2ccccc2)nn1C	-15.7%&-17.9%

Some of the compounds tested; the hit share may differ from the screen's.
